NPYLR7 agonist – agonists of mosquito NPYLR7 receptor, primary screen, cell-based, Aedes aegypti, calcium fluorescence, mosquito biting behavior; Aedes aegypti neuropeptide Y-like receptor 7 (NPYLR7); HEK293T NPYLR7/Galpha15, GCaMP6s calcium fluorescence; activation, % at 10 µM; 0.15% of 270,000 active; AID 1259423, 2018; in the data active = activation above about 40%;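 also: 0% = vehicle and 100% = reference agonist at the receptor; some compounds past the cut are filed as inactive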
NPYLR7 agonist max-min – also measured in NPYLR7 agonist; calls as there; activation, %; measured here: Max-Min RFU normalised activation; some inactives read as strong as hits;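 span of the calcium signal over five minutes; 0% = vehicle and 100% = native peptide agonist; compound fluorescence can raise it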
The depositor's hits bear a star; & = joins results of further samples. Some of the compounds tested; the hit share may differ from the screen's.

Each structure is followed by: NPYLR7 agonist max-min	NPYLR7 agonist
O=C(NC1CCN(c2ncnc3cc(Cl)ccc23)CC1)c1ccccc1
    3.8	7.4
Cn1ccc(CC(=O)NCc2cccc(OC(F)(F)F)c2)c1
    9.8	2.5
Cc1nn(C(=O)C(C)N2C(=O)c3ccccc3C2=O)c(C)c1Br (stereo unspecified)
    -1.7	0.1
O=C(Nc1ccc(C(=O)N2CCCCCC2)cc1)Nc1cnn(CCO)c1
    -0.8	0.6
CCOc1ccc(C(=O)Oc2coc(CSc3nccc(C)n3)cc2=O)cc1
    -6.1	-13.8
CCCOc1ccc(CNC(=O)NC(C)c2nc(C)cs2)cn1 (stereo unspecified)
    -2.8	-2.4
CC(NC(=O)C(C1CCCC1)N1CCN(C(=O)Nc2cccc(F)c2)CC1)c1ccccc1 (stereo unspecified)
    -6.0	-4.5
O=C(Cn1cnnn1)N1CC(=O)N(C2CCCCC2)CC(OCc2ccccc2)C1 (stereo unspecified)
    -7.3	-0.6
Cc1ccc(CN2N=C(c3ccc(F)cc3)Cn3c2nc2c3c(=O)n(C)c(=O)n2C)cc1
    4.1	1.1
O=C(Nc1cccc2cccnc12)c1nc(Cl)ccc1Cl
    0.3	7.0
CCN(Cc1nc2cc(Cl)ccc2c(=O)[nH]1)C(=O)CNC(=O)c1cc(C)cc(C)c1
    -0.2	-2.0
Cc1nc(C)c(C(=O)Nc2ccc(Cl)cc2C)s1
    -9.1	-6.8
Cc1ccc(NC(=O)c2cc3cc(Br)ccc3oc2=O)c(C)c1
    -7.3	-5.5
CCOC(=O)C1(Cc2ccc(OC)cc2)CCN(C(=O)c2ccccc2SC)CC1
    3.2	6.8
Cc1cccc2oc(-c3ccccc3OCC(=O)NCc3ccc(F)cc3)nc12
    12.7	-3.0
COC(=O)[C@H]1CN(C(=O)NC(C)C)CCN1
    -15.6	-11.4
CCCCC(=O)NC1CCCC1SCC (stereo unspecified)
    5.6	15.6
COc1ccc2ccc(OCc3nc(C(=O)N4CCC(NC(C)=O)C4)co3)cc2c1 (stereo unspecified)
    1.1	-2.1
CC(C)CCC(c1ccccc1)N(C)Cc1nccn1C (stereo unspecified)
    16.8	2.3
Cc1ccccc1-c1noc(CNC(=O)CCSc2ccc3c(c2)OCCO3)n1
    -10.2	-6.7
CC1CCCCN1CN1C(=O)CC2(CCCC2)C1=O (stereo unspecified)
    -0.6	1.9
CCCC(=O)Oc1ccc(N(C)C2=NS(=O)(=O)c3ccccc32)cc1
    -2.0	-0.8
COC(=O)c1cc(CN2CCN(c3ncnc4ccccc34)CC2)cs1
    2.8	3.6
OCCCNC1c2ccccc2CCc2ccccc21
    -3.1	-2.4
COc1cc([N+](=O)[O-])ccc1-c1ccc(/C=C2\SC(=S)NC2=O)o1
    4.8	2.5
COCCN(Cc1ccc(OC)c(OS(C)(=O)=O)c1)C(=O)c1ccc(F)cc1
    22.1	14.4
CC(OCC(F)(F)F)C(=O)Nc1ccc2c(c1)OC(C)(C)O2 (stereo unspecified)
    -1.7	3.0
Cc1ccc(-n2ncc3c(=O)n(NC(=O)C4(c5ccc(Cl)cc5)CCCC4)cnc32)cc1
    3.0	3.3
CCCCCc1ccc(C(=O)N2CCN(c3nc4cc(C)c(C)cc4nc3-c3ccccc3)CC2)cc1
    1.1	4.5
COCc1nc(N[C@@H]2CCN(C)C[C@@H]2Cc2ccccc2)c2cnn(C)c2n1
    -6.7	-3.9

Single records, as listed above:
`Cc1nc(C)c(C(=O)Nc2ccc(Cl)cc2C)s1` across the screens: NPYLR7 agonist max-min = -9.1; NPYLR7 agonist = -6.8
`CCCOc1ccc(CNC(=O)NC(C)c2nc(C)cs2)cn1` (stereo unspecified) across the screens: NPYLR7 agonist max-min = -2.8; NPYLR7 agonist = -2.4

The list goes on:
Each structure is followed by: NPYLR7 agonist max-min	NPYLR7 agonist
COc1cccc(C2c3c(oc4ccc(F)cc4c3=O)C(=O)N2c2cc(C)on2)c1 (stereo unspecified)
    0.9	5.5
O=C(c1ccc(-c2ccc(F)c(F)c2)s1)N1CC(=O)N2CCc3c(F)cccc3C2C1 (stereo unspecified)
    -2.1	-3.3
CC1(C)CC(=O)C(C(=O)Nc2sc3ccccc3c2Cl)C(=O)C1
    -1.4	0.8
COc1ccccc1CCNC(=O)CN1CN(c2ccccc2)C2(CCN(S(=O)(=O)c3ccc(NC(C)=O)cc3)CC2)C1=O
    30.6	33.9
CC(=O)Nc1nc(C(=O)N(C)C(C)Cc2ccsc2)cs1 (stereo unspecified)
    2.0	4.2
COCCNC(=O)Cn1nc([N+](=O)[O-])c(Cl)c1C
    -1.5	3.5
CNc1cc(-c2ccccc2F)ncn1
    2.6	5.7
O=C(NCc1nnc(-c2ccccc2)o1)c1cnn2c1CCCC2
    -4.0	-4.1
O=C(c1cccc2nccnc12)N1CCC2(CC1)C(=O)Nc1ccccc12
    3.5	7.1
CC1(C)CC(CCC(=O)Nc2nncs2)C(=O)O1 (stereo unspecified)
    2.5	5.3
CCC1(NC)C(=O)c2ccccc2C1=O
    5.8	5.8
CCCCNC(=S)NN=Cc1sccc1C
    3.0	2.3
O=C(Nn1ccc2c(cnc3nc(C(F)(F)F)nn32)c1=O)c1ccncc1
    4.1	3.4
CCc1ccc(CN2CCC(CO)(CCOc3ccccc3)CC2)o1
    2.7&-14.0	5.5&-8.2
C=C1C(=O)[C@]23[C@H](O)[C@H]1CC[C@H]2[C@@]12CO[C@@]3(O)[C@H](O)[C@@H]1C(C)(C)CC[C@@H]2O
    -5.0	3.3
C1CCCN(CC2CCNCC2)CC1
    15.0	25.0
O=C(CN(CCCN1CCOCC1)C(=O)c1cccc(C(F)(F)F)c1)N(Cc1ccc(F)cc1)Cc1ccco1
    10.7	10.5
O=C(NC1CS(=O)(=O)CC1N1CCCC1)c1cc(Br)cnc1Cl (stereo unspecified)
    1.7	3.3
C=C(C)Cn1c2ccc(NC(=O)CCc3cccnc3)cc2c(=O)n1C
    12.0	22.7
CCOC(=O)c1c(C)c[nH]c1C
    0.5	2.0
COc1cccc(CN2CCC2(C)C(=O)NCc2cccc3ccccc23)c1F (stereo unspecified)
    -2.1	3.3
O=C(O)C1(O)C[C@H](O)C(O)[C@@H](O)C1 (stereo partly specified)
    -2.6	9.6
CCC/C=C/c1ccc(Cn2ccnc2)cn1
    2.6	4.5
Cc1ccc(-n2nnc3c(SCC(=O)N4CCCC4)ncnc32)cc1
    5.9	8.8
CCOC(=O)C1=C(C)NN2C(=O)c3ccccc3NC2S1 (stereo unspecified)
    -5.8	-0.6
Cc1nn(Cc2nc(-c3cccs3)no2)c(C)c1[N+](=O)[O-]
    9.9	10.4
Nc1c(C(=O)Nc2ccccc2)nnn1Cc1ccccc1
    5.2	-0.7
Fc1ccc(CN2CCN(c3cc(Oc4ccc(F)cc4F)ncn3)CC2)cc1
    11.7	5.5
CC(C)Nc1ncccc1C(=O)NCCCc1ccccc1
    -13.9	-8.7
COc1ccc2nc(-c3cccc(NS(=O)(=O)c4ccc5ccccc5c4)c3)cn2n1
    -12.9	-8.7
COCCNC(=O)[C@@]1(OCc2ccc(F)cc2)CC(OCc2cccc(C(F)(F)F)c2)[C@H](O)[C@H](O)C1 (stereo partly specified)
    -4.2	0.3
O=C(CSc1nnnn1C1CCCC1)c1ccc2c(c1)CCC2
    9.8	10.6
Cc1ccc(S(=O)(=O)NCC2(c3ccccc3)CCOCC2)s1
    4.1	4.3
Cc1ccc(C(N)=NOC(=O)/C=C/c2ccccc2)cc1
    -16.4	-6.6
CC(c1ccccc1)n1cnnc1CCn1cccn1 (stereo unspecified)
    3.6	4.5
Cc1cc(C(=O)ON=C(N)c2ccncc2)ccc1[N+](=O)[O-]
    -1.6	-0.9
CC1Cc2ccccc2N1S(=O)(=O)N(C)CCC#N (stereo unspecified)
    4.8	2.2
Fc1ccc(C2(c3noc(-c4n[nH]c5c4CCC5)n3)CCOC2)cc1 (stereo unspecified)
    0.8	1.6
CC(C)COCC(O)CN(Cc1ccccc1Cl)CC1CC(c2ccccc2Cl)=NO1 (stereo unspecified)
    5.2	-2.0
CC(CCC(=O)N1CCC(Cc2nncn2C)CC1)N1CCOCC1 (stereo unspecified)
    -0.6	0.6
O=C(c1csc(-c2cccs2)n1)N1CCOC2(CNCCOC2)C1 (stereo unspecified)
    0.2	0.1
Cc1cc(=O)[nH]c(-n2nc(C3CC3)cc2NC(=O)c2ccc(F)cc2)n1
    1.7	1.5
c1ccc(CCC2CCCCN2c2nc3nonc3nc2N2CCOCC2)nc1 (stereo unspecified)
    1.1	2.6
CC(=O)C1C(c2cccs2)NC(=O)NC1(O)C(F)(F)F (stereo unspecified)
    11.7	2.8
CC(C)(C)c1cc(CN2CCN(c3ncnc4nc[nH]c34)CC2)[nH]n1
    5.9	15.0
O=C(NCCCN1CCOCC1)C(C1CCCC1)N1CCN(C(=O)c2ccc(F)cc2F)CC1 (stereo unspecified)
    3.0	-3.9
COc1ccccc1-c1c(C(F)(F)F)oc2c(CN3CCN(C)CC3)c(O)ccc2c1=O
    -14.7	-9.4
O=C(Nc1ccc(-n2nc(OCc3ccc(F)cc3)nc2-c2ccc(C(F)(F)F)cc2)cc1)c1cccc([N+](=O)[O-])c1
    27.1	17.1
O=C(NC(=S)NCCCNC(=S)NC(=O)c1ccco1)c1ccco1
    -7.2	-4.1
Cn1c(=O)c2c(nc(CN3CCN(Cc4ccccc4)CC3)n2Cc2ccccc2F)n(C)c1=O
    10.8	1.8
CNC(=O)[C@@H]1CN2CCN(Cc3ccc4c(c3)OCO4)C[C@@H]2[C@H]1c1ccccc1
    2.4	3.1
O=C(NCc1cccs1)c1cccnc1N1CCN(C(=O)CCCOc2ccccc2)CC1
    -6.5	1.4
C=CCN(CC(=O)N(CCc1ccccc1)Cc1ccc(C)o1)Cc1cc(F)ccc1F
    20.6	11.2
CC(=O)Nc1ccc(S(=O)(=O)Oc2cccc(CN(C(=O)c3ccco3)C(C)C)c2)cc1
    29.6	30.3
CNc1ncccc1C(=O)N1CC[C@@H](c2ccc3ccccc3c2)[C@H](O)C1
    -4.8	-4.3
O=C(CCC1CCCC1)N1CCN(c2nccc(-c3ccco3)n2)CC1
    4.0	1.8
CCO/N=C1\C(=O)Nc2cc(N3CCCC3)ccc21
    3.9	3.8
Cc1ccc(-c2nc(SCC(=O)Nc3ccc(C(N)=O)cc3)c3c(=O)n(C)c(=O)n(C)c3n2)cc1
    -7.1	-4.2
Cn1c(C(C#N)=Cc2cccc(O)c2)nc2ccccc21
    0.6	11.8
COc1ccc(-n2c(-c3ccc(Cl)cc3)cc(C(=O)N3CCN(C(=O)c4ccc(C)cc4)CC3)c2C)cc1
    4.5	-9.6

Additional records follow.
Each structure is followed by: NPYLR7 agonist max-min	NPYLR7 agonist
COc1cc2c(cc1OC)C(c1cccc(C(F)(F)F)c1)N(C(=O)c1cc(OC)c(OC)c(OC)c1)CC2 (stereo unspecified)
    14.2	22.5
CC(C)Cc1cc(CN2CC(C(=O)O)CC2=O)no1 (stereo unspecified)
    -4.0	0.3
O=C1/C(=C\c2ccc(O)c(O)c2)SC(=S)N1c1ccccc1
    -4.4	6.4
COc1cccc(-c2ccc(NC(=O)C3CCCN(C(=O)c4[nH]c(C)cc4C)C3)cc2)c1 (stereo unspecified)
    7.9	19.9
CN(C)CCCNC(=O)c1cc(NC(=O)c2ccc(Br)cc2)ccc1N1CCCC1
    24.3	14.0
COc1ccc(-n2nc(C(=O)NCc3ccc(F)cc3)c(=O)n(Cc3cccc(C(F)(F)F)c3)c2=O)cc1OC
    4.6	2.4
O=C(NCC1CC(=O)N(C2CC2)C1)C(=O)c1cccs1 (stereo unspecified)
    1.1	5.2
CCCCCN(Cc1cccn1Cc1cccc(C(F)(F)F)c1)C(=O)CN(CC)C(=O)c1ccco1
    35.2	31.6
O=C(NCc1ccccc1Cl)c1ccc(-c2cc(-c3ccc4c(c3)OCCO4)n[nH]2)cc1
    -1.9	3.4
CCCN1C(=O)C(c2c(C(C)C)[nH]n(-c3cccc(Cl)c3)c2=O)=C([n+]2cccc(CC)c2)C1=O
    0.9	3.5
COCCOc1ccnc(-c2noc([C@@H]3CCCN3Cc3cn(C)c4ccccc34)n2)c1
    -16.1	-9.8
O=S(=O)(Nc1ccc(Br)cc1F)c1cccs1
    1.6	2.4
COCC(NC(=O)c1csc2nc(-c3ccccc3)cn12)c1ccnn1C (stereo unspecified)
    3.0	4.9
O=C(OCc1ccc(Cl)cc1)C1CSCCS1 (stereo unspecified)
    9.8	13.1
COc1ccc(C2CC(=O)C3=C(C2)N=C(C)C(C(=O)OC(C)C)C3c2ccc(OC)c(OC)c2)cc1 (stereo unspecified)
    -9.6	-1.3
COc1ccccc1CCNC(=O)c1ccccc1N1CCC(NS(=O)(=O)c2ccc(Cl)cc2)CC1
    7.3	2.3
CN(Cc1ccc(Cl)c(Cl)c1)C(=O)CS(=O)(=O)c1ccc(O)cc1
    3.1	6.5
O=C1C[C@H]2CC[C@@H](CN1)N2C(=O)c1cc(COc2cccc(F)c2)[nH]n1
    7.8	15.1
O=C(N1CCOCC1)N1CCN(C2CCC3(CCNCC3)CC2)CC1
    2.1	3.1
OCC1(O)CCN(CC(c2ccccc2)c2ccccc2)CC1
    5.3	0.6
CCOC(=O)c1c(C)c(C(=O)C(C)N(C)C(=O)c2ccc(Br)cc2)c(C)n1C (stereo unspecified)
    -8.2	-9.0
Cn1ncc(NC2CCc3c(Cl)cccc32)c(Cl)c1=O (stereo unspecified)
    9.3	0.7

Screening data: PubChem, Fisher Drug Discovery Resource Center
